# LANA-H2B inh – blocks KSHV LANA binding to histone H2A/H2B. Q9QR71. inhibition, % (test concentration not listed). AID 2629. 320,000 tested, 0.6% active. cell-free LANA-H2A/H2B peptide, fluorescence polarization; in the data active means inhibition mostly above about 10%, no sharp cut-off; inactive means mostly below about 6.7%;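 further: stock transfer was 7.5 nL into about 10 µL; 0% = median of vehicle wells and 100% = median of positive control wells; one replicate is shown; the record names a cut of 25% in any replicate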
# Target sequence (Q9QR71 whole entry, looked up): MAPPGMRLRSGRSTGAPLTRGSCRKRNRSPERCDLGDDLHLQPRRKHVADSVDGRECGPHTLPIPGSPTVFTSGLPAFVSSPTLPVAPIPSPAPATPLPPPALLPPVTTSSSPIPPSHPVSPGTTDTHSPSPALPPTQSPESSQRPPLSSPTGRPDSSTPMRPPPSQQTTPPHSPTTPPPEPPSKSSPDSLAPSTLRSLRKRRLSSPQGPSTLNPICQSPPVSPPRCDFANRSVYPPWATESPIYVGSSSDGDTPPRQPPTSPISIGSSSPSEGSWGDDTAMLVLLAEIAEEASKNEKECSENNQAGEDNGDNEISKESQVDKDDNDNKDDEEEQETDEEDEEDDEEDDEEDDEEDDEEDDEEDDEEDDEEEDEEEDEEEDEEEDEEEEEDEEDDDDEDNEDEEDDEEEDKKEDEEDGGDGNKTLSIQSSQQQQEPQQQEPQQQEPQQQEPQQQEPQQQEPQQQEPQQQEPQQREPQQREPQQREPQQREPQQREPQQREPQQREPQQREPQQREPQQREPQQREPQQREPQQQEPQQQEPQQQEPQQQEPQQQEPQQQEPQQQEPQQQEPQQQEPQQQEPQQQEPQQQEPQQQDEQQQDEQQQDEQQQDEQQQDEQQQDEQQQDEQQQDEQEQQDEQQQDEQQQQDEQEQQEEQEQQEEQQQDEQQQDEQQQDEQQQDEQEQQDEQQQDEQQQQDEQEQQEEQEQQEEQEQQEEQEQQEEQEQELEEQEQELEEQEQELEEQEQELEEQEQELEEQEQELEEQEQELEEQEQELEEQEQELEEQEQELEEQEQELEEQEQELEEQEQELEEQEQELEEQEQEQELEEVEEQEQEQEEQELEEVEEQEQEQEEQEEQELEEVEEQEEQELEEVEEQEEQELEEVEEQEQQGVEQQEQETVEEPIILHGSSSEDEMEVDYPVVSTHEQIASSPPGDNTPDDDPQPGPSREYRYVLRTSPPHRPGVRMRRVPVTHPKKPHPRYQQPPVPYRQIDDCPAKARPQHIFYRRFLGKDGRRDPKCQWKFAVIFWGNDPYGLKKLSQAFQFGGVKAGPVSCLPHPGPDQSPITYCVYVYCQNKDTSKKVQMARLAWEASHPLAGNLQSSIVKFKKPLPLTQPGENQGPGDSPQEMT
# UCH37 DUB inh – human UCH37 deubiquitinating enzyme inhibition. Q9Y5K5. purified proteasome/UCH37, Ub-AMC cleavage fluorescence. inhibition, % (no concentration beside the values). 330,000 tested, 0.33% active. AID 588478;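 active means mean of two replicates above 20%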;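 further: 0% = compound-free wells with enzyme and 100% = wells lacking proteasome; stock transfer was 100 nL into about 20 µL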
#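 Signal – fluorescence, ex 355 nm, em 460 nm · System – Proteasome-bound UCH37 · Input – 0.15 nM proteasome as dispensed · Timing – 30 min preincubation with enzyme, 25 min cleavage at room temperature · Read-out basis – percent inhibition of cleavage signal versus uninhibited and no-proteasome wells · Medium – Tris-HCl pH 7.4 with ATP-MgCl2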
# E coli growth – blocks Escherichia coli growth; 330,000 tested, 0.21% active; OD600, 23 h; active compounds read low; AID 1053175; OD600 absorbance (no concentration beside the values);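 active means OD600 absorbance below the run mean of sample wells minus 3.6 SD, in any replicate, cut at about 0.56 in these data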;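 further: stock transfer was 300 nL into about 60 µL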
# A1 inh – inhibitors of the anti-apoptotic protein A1, read as caspase activation | MEF A1-2A-BIM cells, Caspase-Glo 3/7 luminescence, 3 h; percent of clofoctol response, vehicle zero | caspase activation, % (test concentration not listed) | 330,000 tested, 0.066% active | AID 2462;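 active means over half of replicate activation scores above 10%, or exactly half above 10 with the replicate mean above 10; inconclusive means replicate mean below 10 yet half the replicates above 10; inactive means over half of replicates below 10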;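 further: wells of about 30 µL received 50 nL stock; many hits fall short of the cut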
# HNF4A DNA FP – change in binding of human HNF4 alpha to DNA; HNF4a-FITC DNA binding, fluorescence polarization, 1 h; 360,000 tested, 0.3% active; AID 1224865; P41235; activity change, % at 10 µM; in the data active means activity change above about 30%, passing the limit was not always enough;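 further: controls were the assay level and a saturating level of protein; the project sought stronger binding though the title names inhibitors; some compounds called inactive have numbers as strong as hits; positive values seem to mean higher polarization but the record does not say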
# B2AR ag – human beta-2 adrenergic receptor agonism by FAP; Am2.2-beta2AR cells, FAP receptor internalization, flow cytometry; reference of the scale not given here; response, % (no concentration beside the values); P07550; 340,000 tested, 0.43% active;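 active means response above a set limit, near 3 SD of response in nonfluorescent compounds, cut at about 42% in these data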;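 further: stock transfer was 100 nL into about 11 µL; a reference agonist was the positive control; negative values mostly stem from fluorescent compounds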
# Vif TR-FRET – HIV-1 Vif–A3G interaction blockers – biochemical, TR-FRET, GST-Vif 1-94, biotin-A3G peptide, dose response retest, primary screen (AID 1117319); TR-FRET GST-Vif / biotin-A3G peptide binding; higher % means a stronger effect; test concentration not given here; strong numbers were not always called active; inhibition, %; hits with a dose series show IC50 in µM; 260,000 tested, 0.57% active;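 active means above the screen mean plus three standard deviations and confirmed in dose response; inconclusive means results disagree or hit not tested in dose response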;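 further: Vif residues 1-94 fused to GST binding biotinylated APOBEC3G peptide 110-148; 0% = full assay without inhibitor and 100% = GST in place of GST-Vif; retest series ran down from 100 µM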
# Active calls of the source: *; ? = inconclusive; · = no result given; & = joins results of further samples.
SMILES,LANA-H2B inh,UCH37 DUB inh,E coli growth,A1 inh,HNF4A DNA FP,B2AR ag,Vif TR-FRET
COc1cc(OC)c(S(=O)(=O)N2CCOCC2)cc1S(=O)(=O)N1CCOCC1,6.1,1.1,0.65,0.1,-11,-5,·
COc1ccc(C(=O)Cc2ccccc2)cc1OC,2.4,-2.0,0.66,-0.8,0.5,2,1%
O=C(NCCCn1ccnc1)c1ccc(NS(=O)(=O)c2ccc(Cl)c(Cl)c2)cc1,-4.8,5.4,0.65,-0.3,-0.8,2,-10%
Cc1ccc(C2=N/C(=C\c3c(C)nn(-c4ccccc4)c3N3CCCC3)C(=O)O2)cc1,-1.7,3.2,0.72,0.6,-1.5,7,-9%
COC(=O)CN1C(=O)CC(C)(C)S(=O)c2ccccc21 (stereo not drawn),3.6,0.3,0.66,0.6,0.9,6,1%
COc1cccc2oc3ccc(C#CC4(N)CCCCC4)cc3c(=O)c12,-4.3,-23,0.66,-3.4,7.4,25,·
Cc1oc2nc(SCC(=O)Nc3ccc(S(N)(=O)=O)cc3)nc(NC(=O)c3ccccc3)c2c1C,1.4,-27,0.72,0.8,-0.1,10,-3%&6%
COc1ccc(CC(=O)NCc2n[nH]c(=S)n2-c2cccc(C)c2)cc1,-1.0,-1.5,0.66,0.3,0.9,-2,·
O=C(COC(=O)c1cc[n+]([O-])cc1)Nc1ccc(Cl)cc1Cl,-1.3,-1.0,0.7,1.1,-0.3,-11,·
COC(=O)N1C(=O)[C@@](c2ccccc2)(C(C)C)N1C(=O)OC,1.9,3.5,0.62,0.0,1.6,-2,·
O=c1[nH]c(-c2ccccc2)cnc1-c1ccccc1,-1.4,-15,0.72,-8.5,1.6,2,·
O=C(CCS(=O)(=O)c1ccccc1)Nc1ccc(S(=O)(=O)Nc2nccs2)cc1,0.0,2.3,0.69,-3.1,4.7,5,7%
NC(N)=N/N=C(\N=Nc1ccccc1)c1ccc(Cl)cc1,·,·,·,·,2.5,16,8%
CCOc1ccc(C(=O)NCCCN2CCOCC2)cc1OCC,0.8,0.8,0.68,0.1,-1.0,-4,·
COc1ccc(/C=N/NC(=O)c2[nH]nc3c2CCc2ccccc2-3)cc1OC,3.6,·,·,0.3,0.0,5,·
C[C@@]12C(=O)N(c3cccc(F)c3)C(=O)N1[C@H](c1ccc(Cl)cc1)[C@@H]1C(=O)N(C3CCCCC3)C(=O)[C@@H]12,5.6,0.1,·,0.0,0.1,-7,·
O=C(CCN1C(=O)S/C(=C\c2ccccc2)C1=O)Nc1ccc(S(=O)(=O)Nc2nccs2)cc1,-5.0,1.8,0.76,-0.3,3.5,2,13%
Cc1ccc(-c2csc(NC(=O)c3c(C)noc3C)n2)s1,0.9,2.6,0.67,-2.2,9.7,3,-2%
COc1ccc(O)c(C2(O)C(=O)c3ccccc3C2=O)c1,1.6,-0.3,0.67,0.0,2.0,-3,?
O=C(NCCN1CCOCC1)c1noc2c1CCc1ccccc1-2,-0.8,1.4,0.67,-2.8,0.5,-1,?
COC(=O)c1cnc(Nc2cccc(C(F)(F)F)c2)c([N+](=O)[O-])c1,4.6,2.8,0.68,-0.9,1.7,4,1%
C[C@@]12C(=O)Nc3cc(F)c(F)cc3C(=O)N1[C@H]1c3cc(Cl)ccc3OC[C@@H]1[C@@H]2c1ccccc1,-2.5,-0.9,·,0.2,-0.8,21,·
O=C1CSC(c2ccc(F)cc2)N1c1nc2ccccc2s1 (stereo not drawn),1.7,0.3,0.67,0.1,-2.3,3,-1%
COc1cc(C)c(C(=O)CSc2nnc(CNC(=O)c3ccco3)n2C)cc1C,-0.8,0.1,0.65,0.2,-0.9,0,-3%
Cn1c(-c2ccccc2)n[nH]c1=S,0.9,1.9,0.71,1.7,1.0,9,-12%
CCCc1cc(=O)oc2cc(C)cc(OCC(=O)N[C@@H](CSCc3ccccc3)C(=O)O)c12,4.2,-44,0.7,1.1,-1.3,-14,·
O=C(N/N=C/c1c(O)ccc2ccccc12)c1ccc(CO)nc1,-5.0,·,·,0.1,42*,2,0%
C=CCN1C(=O)/C(=C\C=C2\N(C)c3ccccc3C2(C)C)SC1=S,-1.7,-3.1,·,-0.1,108,·,15%
COc1ccc(CCNC(=O)COc2ncnc3ccccc23)cc1OC,-3.1,3.4,0.71,0.5,0.4,-4,-3%
CCCC1(CCC)NC(=O)N(CC(=O)Nc2ccccc2OC)C1=O,-0.7,1.1,0.68,0.6,1.6,1,-1%
CCC1=Nc2cc(C(=O)NCCCOC(C)C)ccc2Sc2ccccc21,-0.6,3.7,0.68,1.1,2.0,30,-4%
Cc1ccc(C(=O)NNC(=S)NC(=O)COc2ccccc2)cc1,-0.5,-125,0.57,-0.1,1.5,2,4%
O=c1c(OC2OC(CO)C(O)C(O)C2O)c(-c2ccc(O)c(O)c2)oc2cc(O)cc(O)c12 (stereo not drawn),1.8,4.5,0.61,0.8,6.1,16,-5%
CS(=O)(=O)c1ccccc1-c1nc(-c2ccc([N+](=O)[O-])cc2)no1,-0.2,2.9,0.77,-0.2,1.3,-4,-6%
CCC(C)n1c(SCC(=O)/C(C#N)=C(\C)N)nc2ccccc2c1=O (stereo not drawn),-1.5,1.8,·,-0.5,0.6,-4,·
NC(=S)NNc1cccc(Cl)c1,3.6,2.0,0.69,-0.3,2.5,3,-7%
Cc1ccc(S(=O)(=O)N2C(=O)C(c3ccccc3)SC2=Nc2ccccc2)cc1 (stereo not drawn),4.3,5.8,0.83,0.4,1.2,-3,-2%
CCn1c(SCC(=O)Nc2ccccc2-c2ccccc2)nnc1-c1ccoc1C,1.4,1.2,0.68,0.5,-0.4,1,-2%
COc1ccc(C(=O)/C=C/NCc2ccc(C)cc2)cc1,-3.3,5.4,0.73,-0.1,4.5,4,-3%
Cc1ccc(/C=N/NC(=S)NC2CCCCC2)o1,4.7,·,·,-0.7,7.9,-4,16%

# Random excerpt: three entries already listed.
SMILES,LANA-H2B inh,UCH37 DUB inh,E coli growth,A1 inh,HNF4A DNA FP,B2AR ag,Vif TR-FRET
Cn1c(-c2ccccc2)n[nH]c1=S,0.9,1.9,0.71,1.7,1.0,9,-12%
Cc1ccc(/C=N/NC(=S)NC2CCCCC2)o1,4.7,·,·,-0.7,7.9,-4,16%
Cc1ccc(S(=O)(=O)N2C(=O)C(c3ccccc3)SC2=Nc2ccccc2)cc1 (stereo not drawn),4.3,5.8,0.83,0.4,1.2,-3,-2%

# Other compounds:
SMILES,LANA-H2B inh,UCH37 DUB inh,E coli growth,A1 inh,HNF4A DNA FP,B2AR ag,Vif TR-FRET
Cn1c(=O)c2c(nc(SCC(=O)Nc3ccccc3N3CCCCC3)n2C)n(C)c1=O,-5.8,1.5,0.74,0.1,2.6,2,3%
COc1ccc(N2CCN(Cc3nc4ccsc4c(=O)[nH]3)CC2)cc1,-1.0,4.4,0.72,0.1,-1.6,-8,-3%
COCCn1c(N)c(N(Cc2ccccc2)C(=O)CSCC(=O)Nc2ccc(OC)cc2)c(=O)[nH]c1=O,-2.4,3.0,0.68,0.2,0.3,-7,9%
N#Cc1c(N)sc2c1CCN(C(=O)OCc1ccccc1)C2,-0.7,2.9,0.71,0.5,5.4,2,-3%
CC1(CCC(=O)N2CCCC(Nc3ccc(F)cc3)C2)CC1 (stereo not drawn),-1.5,1.5,0.71,0.0,8.1,2,9%
CC(C)(C)OC(=O)NCC(=O)Oc1cc2oc(=O)cc(-c3ccccc3)c2cc1Cl,-6.3,-89,0.65,0.0,0.3,3,-8%
C/C(CC(=O)Nc1ccc(N(C)C)cc1)=N\NC(=O)c1ccc(Cl)cc1Cl,5.6,·,·,-0.2,-0.3,6,·
COc1ccc(NS(=O)(=O)c2cccc(NC(=O)CCS(=O)(=O)c3ccccc3)c2)cc1,1.2,1.9,0.61,0.3,2.8,1,15%
O=C1CC(c2ccccc2)CC(=O)N1c1ccc(C(F)(F)F)cc1,0.0,3.1,0.64,-0.5,7.5,1,·
CCOc1ccc(N(CC(=O)NC2CC2)S(=O)(=O)c2ccc(C)cc2)cc1,4.5,2.1,0.69,0.5,3.0,3,-2%
N#Cc1c(Sc2ncc(C(F)(F)F)cc2Cl)nsc1C/C=N\OCc1ccccc1Br,2.6,·,·,1.2,17,3,20%
CC1(C)Cc2nc(NC3CCCCC3)c(C#N)cc2CO1,0.7,-236,0.71,-0.1,3.0,-1,2%
COc1ccccc1CCNS(=O)(=O)c1cc2c3c(c1)C(C)C(=O)N3CCC2 (stereo not drawn),-6.4,-0.5,0.67,1.5,-1.7,1,·
COc1ccc(CN(CC(O)COCc2ccccc2)S(=O)(=O)c2ccccc2Br)cc1OC (stereo not drawn),·,-3.6,0.73,·,2.8,0,-2%
CCCCc1noc2c1/C(=N\O)CC(c1ccccc1)C2 (stereo not drawn),-5.3,·,·,-0.1,1.9,-3,-6%
O=C(N=Nc1c(O)[nH]c2ccc([N+](=O)[O-])cc12)c1cc(-c2ccccc2Cl)nc2ccccc12,-3.8,6.0,0.72,48*,-0.5,1,4%
COc1ccc(C2CC(C(F)(F)F)n3nc(C(=O)Nc4ccc5c(c4)OCO5)cc3N2)cc1 (stereo not drawn),2.0,1.5,0.7,-0.5,0.5,-3,2%&1%
CCc1ccc(C(=O)NC(=S)Nc2ccc(N3CCOCC3)cc2)cc1,7.8,2.2,0.69,-0.3,-1.1,-9,9%
O=C1OCC(c2ccccc2)=C1c1ccccc1,1.8,0.1,0.63,0.8,-3.4,-12,·
CC(C)(C)OC(=O)C[C@H]1C/C=C\C[C@@H](CC(=O)N[C@@H](CO)Cc2ccccc2)C(=O)N2CCC[C@H]2COC1=O,-1.1,-2.2,·,-0.5,-3.8,8,·
O=C(NCc1ccco1)C(=O)NCC1OCCN1S(=O)(=O)c1ccc(F)cc1 (stereo not drawn),-7.0,0.6,0.71,0.4,-2.0,-10,24%
CC(=O)c1cccc(S(=O)(=O)N2CCCC(c3nc4c(nnn4Cc4ccccc4Cl)c(=O)[nH]3)C2)c1 (stereo not drawn),·,2.1,0.69,·,-1.7,-3,9%
O=C(CSc1nnc(-c2cccs2)o1)N1CCCc2ccccc21,2.1,-0.2,0.72,0.6,1.5,-13,1%
CCOC(=O)c1cnc2c(C)c(Cl)ccc2c1N1CCN(CC)CC1,2.9,8.0,0.66,0.0,1.0,-2,-2%
COc1cc(C2C(C(=O)OC(C)C)=C(C)Nc3[nH]c(=O)[nH]c(=O)c32)ccc1O (stereo not drawn),-0.1,2.4,0.67,0.9,0.8,-8,11%
CN(C)S(=O)(=O)c1cccc(NC(=S)N/N=C/c2ccc(O)c(O)c2O)c1,·,·,·,·,-6.9,8,1.9µM*
CC(=O)N1N=C(c2ccccc2)CC1c1ccccc1 (stereo not drawn),1.5,3.2,0.67,-0.5,-4.1,-5,·
CCCn1c(SCC(=O)N2c3ccccc3Sc3ccccc32)nc2c1c(=O)n(C)c(=O)n2C,-1.2,1.7,0.69,0.1,-1.3,28,25%
COc1cc(OC)cc(C(=O)NNC(=O)c2cc(S(=O)(=O)N3CCOCC3)ccc2F)c1,4.4,0.1,0.69,-0.1,0.4,7,3%
C#CCOCCOCCOCCNc1nc(N2CCN(C(=O)C(Cc3ccc(O)cc3)n3cc(C(N)CC(C)C)nn3)CC2)nc(N2CCN(C(=O)C(Cc3cc4ccccc4[nH]3)n3cc(C(N)Cc4ccc(O)cc4)nn3)CC2)n1 (stereo not drawn),3.8,3.3,0.59,1.1,·,·,-12%

# Compound activity as filed in PubChem BioAssay.
